YopH inh = YopH tyrosine phosphatase inhibitors, primary screen, biochemical, fluorescence Ex485/Em525. inhibition, %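 (about 10 µM by stock and volumes)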. 140,000 compounds, 0.16% hits. AID 898, 2007;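 active = inhibition of 50% or more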;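 also: controls were vehicle for no effect and minimum signal wells for full effect; inactives centre near -20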
RecA splice inh = Mtb RecA intein splicing inhibitors, primary screen, biochemical, fluorescence, HTS | cell-free RecA intein splicing | 290,000 compounds, 0.75% hits | Protein RecA (Mycobacterium tuberculosis (strain ATCC 25618 / H37Rv)), P9WHJ3 | inhibition, %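 (about 9 µM by stock and volumes)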; in the data active = inhibition above about 30%; inconclusive = no clear call, values can overlap the other calls;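 also: 0% = vehicle wells and 100% = reference inhibitor control wells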
Target sequence (P9WHJ3 whole entry, looked up, canonical isoform): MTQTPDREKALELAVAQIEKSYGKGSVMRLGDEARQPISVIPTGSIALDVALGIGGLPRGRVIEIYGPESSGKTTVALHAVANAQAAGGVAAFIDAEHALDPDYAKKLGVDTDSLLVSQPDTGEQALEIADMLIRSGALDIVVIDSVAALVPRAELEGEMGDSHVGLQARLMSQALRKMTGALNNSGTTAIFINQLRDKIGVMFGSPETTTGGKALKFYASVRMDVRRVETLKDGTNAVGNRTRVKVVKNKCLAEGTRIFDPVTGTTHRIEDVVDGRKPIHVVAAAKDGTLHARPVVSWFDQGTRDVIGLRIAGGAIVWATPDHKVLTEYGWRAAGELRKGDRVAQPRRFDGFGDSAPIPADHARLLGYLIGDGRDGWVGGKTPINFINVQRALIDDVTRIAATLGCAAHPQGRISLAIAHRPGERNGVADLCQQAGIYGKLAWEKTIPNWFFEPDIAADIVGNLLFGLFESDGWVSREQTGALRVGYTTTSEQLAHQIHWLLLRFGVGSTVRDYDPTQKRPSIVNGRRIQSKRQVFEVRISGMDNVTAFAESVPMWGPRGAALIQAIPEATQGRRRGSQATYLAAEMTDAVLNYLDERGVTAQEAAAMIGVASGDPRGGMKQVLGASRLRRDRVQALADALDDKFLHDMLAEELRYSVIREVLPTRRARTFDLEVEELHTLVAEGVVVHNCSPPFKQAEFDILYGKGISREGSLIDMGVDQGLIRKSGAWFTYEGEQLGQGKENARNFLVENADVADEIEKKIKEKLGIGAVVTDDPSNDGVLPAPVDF
Arbovirus inh = antivirals against arbovirus infection, primary screen, cell-based, full library, 10K replicate subset; AID 1251, 2008; inhibition, % at 10 µM; arbovirus infection cell-based antiviral screen; 200,000 compounds, 0.37% hits;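 active = inhibition from about 30%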;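 also: bluetongue infection of BSR cells; cell survival read as ATP light after 72 h; 0% = infected wells without compound and 100% = uninfected wells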
Mtb H37Rv = M. tuberculosis H37Rv growth inhibitors, H37Rv strain (AID 1626). M. tuberculosis H37Rv growth inhibition; higher % means a stronger effect. 220,000 compounds, 0.95% hits. one-dose inhibition, % at 10 µM; IC50 in µM for titrated hits;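 active = confirmed in a dose series; inconclusive = inhibition above 80% but not taken into the dose series; inactive = below 80% or under 30% at every dose of the series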;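 also: bacteria incubated seven days before Alamar blue readout; 0% = bacteria only wells and 100% = bacteria with antibiotic wells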
Mtb betalactam = beta-lactam sensitization of Mtb H37Rv, H37Rv | 330,000 compounds, 0.27% hits | inhibition, % at 25 µM | M. tuberculosis H37Rv growth with meropenem, percent inhibition; hits of this screen are not shown here;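 active = about 74% or more and at least 40 points above the plate without the antibiotic, then above 30% in a dose series; inconclusive = first-round hits that could not be retested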;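 also: growth measured after seven days incubation then overnight dye step; 0% = bacteria only wells and 100% = bacteria with antibiotic; twin plates without the antibiotic show which effects depend on it; some results filed as inactive read as strong as hits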
Arbovirus inh repeat = second read-out of Arbovirus inh, no call of its own (marks repeat the call); inhibition, %; measured here: 10K subset replicate screen; many hits read low in the repeat;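 first of two repeat runs on a subset; 0% = infected and 100% = uninfected wells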
An asterisk follows results filed as active; ? = inconclusive; / = no result given. Some of the compounds tested; count on the stated rates, not on these rows.

SMILES | YopH inh | RecA splice inh | Arbovirus inh | Mtb H37Rv | Mtb betalactam | others
O=C(NCC1CCCO1)c1ccc2c(=O)n(Cc3ccc(Cl)cc3)c(=S)[nH]c2c1 (stereo not given) | / | / | -12 | -1% | -6
O=C(Oc1ccc(C(=S)N2CCOCC2)cc1)c1ccc([N+](=O)[O-])cc1[N+](=O)[O-] | / | 46* | / | / | 13
COc1ccc(C(=O)NCC(=O)N/N=C/c2cn(C)c3ccccc23)cc1OC | / | 1.1 | / | / | -5
O=C(Nc1cccc(Br)c1)c1ccc(CSc2ccccc2)cc1 | -36 | 0.5 | -4 | / | 4
O=C(Nc1ccccc1Cl)OC1CCCCC1 | / | 0.2 | / | / | -5
Cc1ccccc1NC(=O)/C=C1\SC(=O)NC1=O | / | -1.9 | -1 | 2% | 51
CCCn1c2ccccc2c2cc(C(=O)O)ccc21 | / | 0.6 | 2 | / | 11 | Arbovirus inh repeat=6
CCCCNC(=O)C1CCN(c2nc(C)cc(C)n2)CC1 | / | 0.0 | 2 | 3% | -7
O=C(NC(=S)Nc1ccc(N2CCOCC2)cc1)c1ccco1 | -23 | 1.4 | 5 | 5% | -8
CC(C)NC(=O)C(c1ccc(F)cc1)N(C(=O)CCC(=O)Nc1ccccn1)C1CCCCC1 (stereo not given) | / | 0.2 | / | / | -7
Cc1c(CC(=O)NCCCCCC(=O)O)c(=O)oc2cc3c(cc12)CCC(C)(C)O3 | / | -1.7 | / | / | 2
CN(C)S(=O)(=O)c1cc(NC(=O)C[N+]23CCN(CC2)CC3)ccc1Cl | -24 | -0.4 | 13 | -4% | -2
S=P(NC1CCCCC1)(N1CC1)N1CC1 | / | -1.8 | / | 1% | 10
Cc1ccnc(NC(=O)CCCc2c[nH]c3ccccc23)c1 | / | -6.0 | / | / | -2
Cc1cccc(CNC(=O)Cn2ccc3cc(S(=O)(=O)N4CCCC4)ccc32)c1 | / | 0.3 | / | / | -1

Structural class: the compounds so far containing a Cl atom (3)
SMILES | YopH inh | RecA splice inh | Arbovirus inh | Mtb H37Rv | Mtb betalactam | others
O=C(NCC1CCCO1)c1ccc2c(=O)n(Cc3ccc(Cl)cc3)c(=S)[nH]c2c1 (stereo not given) | / | / | -12 | -1% | -6
O=C(Nc1ccccc1Cl)OC1CCCCC1 | / | 0.2 | / | / | -5
CN(C)S(=O)(=O)c1cc(NC(=O)C[N+]23CCN(CC2)CC3)ccc1Cl | -24 | -0.4 | 13 | -4% | -2

(next part)
SMILES | YopH inh | RecA splice inh | Arbovirus inh | Mtb H37Rv | Mtb betalactam | others
O=c1c2cc([N+](=O)[O-])cc([N+](=O)[O-])c2[nH]n1-c1ccccc1 | / | 2.6 | / | / | 12
CC(C)OCCCNC(=O)C1CCC(CNS(=O)(=O)c2ccc(Cl)cc2)CC1 (stereo not given) | -25 | 0.1 | 2 | -10% | 2
COCCn1c(SC(C)C(=O)NCC2CCCO2)nc2scc(-c3ccc(F)cc3)c2c1=O (stereo not given) | / | 15 | / | / | 1
CC(NC(=O)C1CCCN(S(=O)(=O)N2CCOCC2)C1)c1ccccc1 (stereo not given) | / | -2.8 | / | / | 5
Cc1cc(NCCCN2CCOCC2)n2nc(C)c(-c3ccc(F)cc3)c2n1 | 0 | 4.8 | -2 | 5% | 4
CCOc1ccc2nc(N(CCCN(C)C)C(=O)c3ccc(S(=O)(=O)N4CCCC4)cc3)sc2c1 | / | -4.2 | / | / | -10
COc1ccc(-n2nc(C(=O)NCC(=O)N3CCN(c4ccccc4F)CC3)c3ccccc3c2=O)cc1 | / | -0.6 | / | / | 3
CC(=O)Nc1ccc(NC(=O)C2CC(=O)N(c3cccc(Cl)c3)C2)cc1 (stereo not given) | / | 1.6 | 19 | 1% | 2
COc1ccc(C(C)NS(=O)(=O)Cc2ccccc2)cc1 (stereo not given) | / | 1.0 | / | / | 0
CCOc1ccc(NC(=O)c2ccc(NC(=O)Cc3n[nH]c(=O)c4ccccc34)cc2)cc1 | / | -0.9 | / | -5% | -2
Cc1nnc(NC(=O)COc2ccc3c(C)cc(=O)oc3c2)s1 | -26 | 1.5 | 14 | / | -8
C=CCN(CC=C)C(=O)c1cc(Cl)ccc1[N+](=O)[O-] | -21 | -2.0 | 2 | -3% | -4
CCOC(=O)Cn1nc(-c2ccc(C)cc2)c2ccccc2c1=O | / | 1.5 | -6 | 6% | /
C=CCOc1ccc(/C=C/C(=O)OCC(=O)NCC2CCCO2)cc1 (stereo not given) | / | -0.9 | / | / | 4
c1ccc2[nH]c(NCc3ccc4c(c3)OCO4)nc2c1 | / | -0.1 | -6 | -5% | 8
NC(=O)c1ccccc1OCC(=O)NC12CC3CC(CC(C3)C1)C2 | -5 | 2.8 | -1 | -2% | -12
CC1CCCCC1NC(=O)CCS(=O)(=O)c1cc2c(cc1Cl)NC(=O)CO2 (stereo not given) | / | -1.7 | / | / | -2
CCOCCCNc1nc(-c2ccccc2)nc2ccccc12 | / | 0.6 | / | / | 13
CC(C)N(C(=O)c1ccc2nc(-c3ccccc3)c(-c3ccccc3)nc2c1)C(C)C | -11 | 19 | -25 | 18% | 19
O=C(COc1ccc(Cc2ccccc2)cc1)c1ccc(F)cc1 | -1 | 11 | -22 | 15% | -13
CN(C)CCCN(C(=O)c1cccc(N2C(=O)CCC2=O)c1)c1nc2cc3c(cc2s1)OCO3 | / | -0.4 | 1 | 3% | -4
CCOC(=O)c1c(NC(=O)C2CCCO2)sc2c1CCC2 (stereo not given) | -28 | 7.2 | -5 | 12% | -3
O=C(NCc1ccncc1)c1ccc(OCc2ccccc2)cc1 | / | 1.5 | / | / | 3
COc1ccc(NC(=O)CSc2nccn2-c2ccccc2)c(OC)c1 | -29 | 2.0 | 8 | 4% | -7
O=C(c1cccc(F)c1)N1CCc2ccccc21 | -3 | 2.2 | 2 | 4% | 5 | Arbovirus inh repeat=-5
COc1cccc(-c2cc(C(=O)Nc3cnn(Cc4ccccc4C)c3)no2)c1 | -37 | / | -14 | / | 6
CN(CC(=O)Nc1ccccc1Cl)C(=O)c1cc(=O)[nH]c2ccccc12 | / | 1.3 | / | -3% | 2
Cc1ccc(C)c(CN2CCC(CNC(=O)Nc3ccc(Br)cc3F)CC2)c1 | / | 4.3 | / | / | 45
COc1ccc(C(=O)NC(Nc2ccc(C)cc2)C(Cl)(Cl)Cl)cc1 (stereo not given) | -9 | 12 | 2 | 11% | 7
CCCCNC(=O)OC(C)CNC(=O)Oc1cccc(C)c1 (stereo not given) | -28 | -1.6 | 16 | -3% | -4
COc1ccc(-c2nc3ccc(C(=O)NCC(OC)OC)cc3nc2-c2ccc(OC)cc2)cc1 | / | -3.8 | 19 | 9% | 12
Cc1cc(Br)c(NC(=O)c2ccccc2[N+](=O)[O-])cc1C | / | 2.7 | -3 | 6% | 11
CCOC(=O)CNC(=O)Nc1ccccc1C(=O)OC | -17 | -0.8 | 6 | -3% | 2
CCOC(=O)C[C@H]1c2cc(C(F)(F)F)ccc2S(=O)(=O)N1C(C)C | / | -2.6 | / | -7% | -4
Cc1cc(C)nc(SCC(=O)NC2=NN=C(c3ccc(Br)cc3)CS2)n1 | -18 | -1.1 | -15 | 3% | -3
CCN(CC)C(=O)CSc1nc2cc3c(cc2c(=O)n1Cc1ccco1)OCO3 | / | 1.9 | -9 | -9% | -6
O=C1c2ccccc2NC(c2c(Cl)cccc2Cl)N1Cc1ccccc1 (stereo not given) | 0 | 0.7 | 8 | 5% | 4
CCOC(=O)CNC(=S)N(CCCN1CCCCCC1)Cc1cccs1 | / | 1.2 | 1 | -4% | 4
O=[N+]([O-])c1cc(/C=N/O)ccc1Oc1cccc(Cl)c1 | / | 5.3 | -2 | 2% | 7
Cc1cc(C)c(S(=O)(=O)c2ccc(F)cc2C)c(Cl)n1 | / | -0.3 | / | / | 1
O=C(CSc1nnnn1-c1ccccc1)c1ccco1 | / | -5.0 | 8 | 7% | 3
Cc1cccc(-n2c(O)c(/C=N/N3CCOCC3)c(=O)[nH]c2=S)c1 | -17 | 2.3 | 14 | 10% | 0
CCN1C(=O)c2ccccc2S(=O)c2ccc(C(=O)N3CCCCCC3)cc21 (stereo not given) | -53 | 1.4 | 0 | / | -5
CCOC(=O)c1ccccc1OCc1cc(/C=N/n2cncn2)ccc1OC | 11 | 1.0 | -11 | -5% | ?
O=S(=O)(NNc1nccc(C(F)(F)F)n1)c1cccc(Cl)c1Cl | / | -1.2 | / | -7% | -3

Structures above with a furan ring, fused or not:
SMILES | YopH inh | RecA splice inh | Arbovirus inh | Mtb H37Rv | Mtb betalactam | others
O=C(NC(=S)Nc1ccc(N2CCOCC2)cc1)c1ccco1 | -23 | 1.4 | 5 | 5% | -8
CCN(CC)C(=O)CSc1nc2cc3c(cc2c(=O)n1Cc1ccco1)OCO3 | / | 1.9 | -9 | -9% | -6
O=C(CSc1nnnn1-c1ccccc1)c1ccco1 | / | -5.0 | 8 | 7% | 3

(more compounds)
SMILES | YopH inh | RecA splice inh | Arbovirus inh | Mtb H37Rv | Mtb betalactam | others
CCOCCc1nnc(NC(=O)C(CC)c2ccccc2)s1 (stereo not given) | -3 | -1.1 | 0 | 2% | -2
COCCN1C(=O)N(c2ccc(Cl)cc2)C(=O)C1CC(=O)Nc1cc(OC)cc(OC)c1 (stereo not given) | / | 0.6 | / | / | 4
COc1ccc(CCN(C)C2CCCN(C(=O)CCSC)C2)cc1OC (stereo not given) | / | 0.2 | / | / | 8
Cc1ccccc1NC(=O)COC(=O)Cc1cccc(C(F)(F)F)c1 | -28 | 0.1 | 5 | -9% | ?
COC(=O)c1ccc(S(=O)(=O)N2CCN(C(c3ccccc3)c3ccccc3)CC2)n1C | / | 5.5 | / | 5% | -10
Cc1ccc(C2CC2c2n[nH]c(=S)n2-c2ccc(C)cc2)cc1 (stereo not given) | -15 | 4.1 | 11 | 3% | -7
COc1ccc(C(=O)Nc2ccc3[nH]ncc3c2)cc1OC | / | 1.6 | / | / | -2
C=CCC1C=C(C)CC(CC=C)N1 (stereo not given) | / | 0.2 | 23 | -12% | -2
CC(OC(=O)CCc1nc2ccccc2c(=O)[nH]1)C(=O)NC1CCCC1 (stereo not given) | -39 | -7.9 | 5 | 2% | -6
O=C(NCCc1ccccc1)c1cc(=O)[nH]c2ccccc12 | / | -1.1 | 7 | 5% | -9
Clc1nc(-c2ccccc2)cc(-c2ccccc2)n1 | 1 | 0.3 | 18 | 13% | -1
Cc1ccc(-c2cc(C(=O)Nc3cccnc3)[nH]n2)c(O)c1C | / | 0.8 | / | 2% | 48
N#Cc1cccc(NC(=O)Cc2ccsc2)c1 | / | 1.7 | / | / | -1
O=C(O)C1(c2cccc(Cl)c2)CCC1 | -53 | 2.8 | 8 | -1% | 2
O=C(CC(c1ccccc1)(c1ccccc1)c1ccccc1)N[C@@H](Cc1ccc(O)cc1)C(=O)O | / | 3.5 | 5 | -5% | -8
COc1ccc(Cl)cc1C(=O)NC(=S)Nc1ccccc1N1CCOCC1 | / | -0.4 | / | / | -23
Cn1c(=O)c([N+](=O)[O-])c(Oc2ccccc2)c2ccccc21 | / | 15 | -2 | -7% | /
COc1ccc(-c2nc(CS(=O)CC(=O)NCCc3ccc(C)cc3)c(C)o2)cc1OC (stereo not given) | / | -2.8 | / | / | -1
FC(F)(F)c1ccc(Cl)c(-n2c(Cc3cccs3)n[nH]c2=S)c1 | / | -5.0 | / | 9% | -1
COc1ccc2c(c1)C(SCC(=O)NCCc1ccc(Cl)cc1)CC(C)(C)O2 (stereo not given) | -25 | 4.0 | -11 | / | 1
COc1ccc(CNC(=O)Cn2cccc2C(=O)c2ccccc2)cc1 | / | 2.4 | / | / | 4
Cc1[nH]c(=O)c(C#N)c(C)c1[N+](=O)[O-] | / | 0.1 | / | -12% | 0
COc1ccccc1-n1c(SCC(=O)Nc2ccc(C)cc2)nc(O)cc1=O | -4 | 3.0 | 7 | 6% | -1
C=CCn1c(SCC(=O)NC2CCS(=O)(=O)C2)nc2scc(C3CC3)c2c1=O (stereo not given) | -1 | -1.2 | 2 | -3% | -12
CSc1nnc(-c2cc3c(s2)-c2ccccc2CC3)o1 | -30 | -3.4 | 3 | 22% | 94
O=C(Nc1c2c(nn1-c1ccccc1)CS(=O)(=O)C2)c1ccccc1C(F)(F)F | / | -5.2 | / | / | 0
CCCc1cc(=O)n2nc(N3CCC(C(=O)NCc4ccc(C)o4)CC3)sc2n1 | / | -0.6 | / | / | -2
O=S(=O)(Nc1cccc(-c2cn3c(n2)SCC3)c1)c1ccccc1 | / | 3.2 | / | / | -6
CCn1nc(C(=O)OCc2cccc(S(=O)(=O)N(C)C)c2)c2ccccc2c1=O | / | -2.4 | / | 5% | -5
